Bioassay records as filed in PubChem.
AID504770: growth inhibition of E. coli YBA685, primary screen, V. cholerae RctB inhibitors | E. coli YBA685 rctB-dependent plasmid, OD600 growth, 3 h; hits give low values | z-score (concentration not given with the values) | 0.27% of 130,000 active;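 active means z-score under -2 on both plates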;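 further: wells of about 30 µL received 100 nL stock; score is relative to mean and SD of the test wells; the first replicate is given; strong numbers were not always called active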
Ba CapD inh: Bacillus anthracis CapD inhibitors, primary screen, biochemical, fluorescence intensity | CapD gamma-glutamyltranspeptidase (Bacillus anthracis Ames Ancestor) | purified CapD enzyme, fluorescence intensity read-out; hits give low values; some hits fall short of the stated cut | z-score (no concentration beside the values) | 0.23% of 140,000 active | AID 492967, 2010;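 active means z-score under -4 in either of two replicates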;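 further: stock transfer was 100 nL into about 40 µL; score is relative to mean and spread of the plate; one replicate is shown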
Numbers without * were called inactive; nt = not tested or not shown; & = joins results of further samples.

SMILES	AID504770	Ba CapD inh
CC(C)(C)c1ccc(N2C(=O)/C(=C/c3ccc(-c4ccc([N+](=O)[O-])cc4)o3)C=C2c2ccccc2)cc1	nt	-0.525
CCCN1CCC(NC(=O)Nc2ccccc2C(=O)OC)CC1	-0.75	17.3
Nc1ccc(-c2nc3ccccc3o2)cc1	0	84.6
Cc1ccc(-c2nnc(NC(=O)c3ccc(S(=O)(=O)N4CCCC4)cc3)o2)c(C)c1	0.2	nt
O=C1NCCN1CCNC(=S)Nc1ccc(OC(F)(F)F)cc1	-0.6	-0.92
COC(=O)c1ccc(Oc2nc(NC(C)C)nc(NC(C)C)n2)cc1	nt	-0.26
Cn1nc(-c2ccc(Cl)cc2)c2cc(C(=O)NCC3CCCO3)sc21 (stereo not given)	-1.15	60.4
Cc1cccc(N2C(=O)C(N3C(=O)c4c(Cl)c(Cl)c(Cl)c(Cl)c4C3=O)C2c2cccs2)c1 (stereo not given)	nt	-0.365
CC(C)N(C(=O)Cn1c(SCC(=O)N2CCOCC2)nc2ccccc21)C(C)C	-0.15	nt
CCOC(=O)c1c(C=O)oc2c(C)cc(OC(=O)c3ccccc3Br)c(Br)c12	nt	0.45
N#CC1=C(N)OC2=C(C(=O)CCC2)C12C(=O)N(CC(N)=O)c1ccccc12 (stereo not given)	-0.65	0.085
O=C(O)c1ccc(N=Cc2cccnc2)cc1	0.75	0.19
Cc1ccc(S(=O)(=O)CCSC2=CC(=O)CC(C)(C)S2)cc1	-0.7	-0.75
COc1ccc2c(c1)c(=O)c1ccccc1n2CC(=O)Nc1cccc([N+](=O)[O-])c1	nt	0.095
CN1CCN(NC(=O)CSc2ccc(Cl)cc2Cl)CC1	-0.45	nt
NC(=O)c1ccc(OC2CSC2)cc1	1.5	-0.36
O=C(O)c1ccccc1C(=O)NCc1csc2ccccc12	0.7	0.29
COc1ccccc1NC(=O)CSCc1cnc(C)c(O)c1CO	2.1	8.17
O=C1c2ccccc2C(=O)N1CSc1nnc(-c2cccs2)o1	-0.4	nt
CNc1nc(=S)[nH]c2ccccc12	-0.15	nt
CN(C(=O)c1ccco1)c1ccc(Cl)cc1C(=O)c1ccccc1	1	1.48
O=C(c1ccc(OC(F)(F)F)cc1)c1cc2cc([N+](=O)[O-])ccc2o1	nt	0.025
CC(C)OC(=O)c1nnn(-c2nonc2N)c1CN1CCC(C(N)=O)CC1	nt	-0.275
CC(=O)Oc1cc2c(C(=O)NCCCN3CCOCC3)c(C)oc2c2ccccc12	-1.15	nt
Cc1oc(-c2ccccc2)nc1C(=O)N(C)CC(=O)Nc1ccc(N2CCOCC2)cc1	1.7	nt

Next structures follow.
SMILES	AID504770	Ba CapD inh
Cc1nnc(C)c2c(C)n(-c3ccc4c(c3)OCO4)c(C)c12	1.65	nt
Cc1csc(=N)n1CC(=O)N1CCc2ccccc21	-0.3	nt
O=C(NCc1ccccc1)c1cccn(Cc2cccc(Cl)c2)c1=O	nt	72.5
O=C(O)CCC(=O)Nc1ccc(S(=O)(=O)Nc2nccs2)cc1	-0.05	-0.665&-0.245&-0.06
O=C(CCCc1ccccc1)N/N=C/c1ccc(O)cc1O	2.1	-0.515
CC1SCC(NC(=O)c2ccccc2)CS1 (stereo not given)	0.2	-0.605
O=c1cnc2ccccc2n1Cc1cc(=O)n2ccsc2n1	-0.5	nt
N#CCc1ccc(N=Cc2cc(Cl)cc(Cl)c2O)cc1	nt	-0.175
CC(C)(C)NC(=O)Cn1cnc2c(cnn2-c2ccccc2)c1=O	-0.95	0.32
Cc1ccccc1Nc1nc(N)nc(COC(=O)Cc2c[nH]c3ccccc23)n1	0.2	nt
Nc1ncc(Br)cc1Br	nt	0.325
N#Cc1c(Nc2ccccc2Cl)s[nH]c1=O	-1.6	-0.58
COc1cccc(CN2CCc3nc(N4CCOCC4)ncc3C2)c1	0.25	3.15
COc1ccc(-c2cc(=S)sc(N)c2C#N)cc1OC	0.15	-0.795
O=C(NN=C1CCCC1)c1ccccc1O	-0.05	68.3
O=C(c1ccccc1)c1ccc(C(=O)O)c(C(=O)O)c1	1.5	nt
O=C(Nc1ccccc1)Nc1ccccc1C(=O)NCC1CC1	-1.2	3
COc1cc([N+](=O)[O-])ccc1N=c1ssc2c1-c1cc(C)c(C)cc1NC2(C)C	nt	-0.195
O=C(CSc1ccccc1C(=O)O)c1ccccc1	1.9	-0.02
COc1ccc(S(=O)(=O)NC(CC(=O)O)C(C)C)cc1 (stereo not given)	-0.25	0.735
CN(Cc1cccs1)C(=O)CSc1nnc(-c2ccccc2)n1-c1ccccc1	-0.35	nt
C=CCn1c(-c2ccccc2Cl)nn(CCC#N)c1=S	-0.05	nt
CC1(C)CC(=O)C(C=NCCN2CCN(C(=O)Cc3ccccc3)CC2)=C(O)C1	0.15	0.075
O=C(COc1ccccn1)N1CCN(c2ccccc2)CC1	-0.5	0.63
O=C(O)C12C3CCC4C5C3C1C5(C(=O)O)C42 (stereo not given)	-0.4	0.93

Six of the compounds above, comma-delimited:
mol,AID504770,Ba CapD inh
O=C(CCCc1ccccc1)N/N=C/c1ccc(O)cc1O,2.1,-0.515
CC1SCC(NC(=O)c2ccccc2)CS1 (stereo not given),0.2,-0.605
O=c1cnc2ccccc2n1Cc1cc(=O)n2ccsc2n1,-0.5,nt
N#CCc1ccc(N=Cc2cc(Cl)cc(Cl)c2O)cc1,nt,-0.175
CC(C)(C)NC(=O)Cn1cnc2c(cnn2-c2ccccc2)c1=O,-0.95,0.32
Cc1ccccc1Nc1nc(N)nc(COC(=O)Cc2c[nH]c3ccccc23)n1,0.2,nt

The results go on.
SMILES	AID504770	Ba CapD inh
O=C(c1ccco1)c1cn(CC(=O)N2CCc3ccccc32)c2ccccc12	0.3	nt
O=S(=O)(NC1CCCc2ccccc21)c1ccc2c(c1)OCCO2 (stereo not given)	-0.4	nt
CN(C)C(=O)CSc1ccc(-c2ccc(F)cc2)nn1	-0.4	nt
COCCn1c(C)nnc1SCC1CCCO1 (stereo not given)	-0.35	nt
CCOC(=O)n1c(=S)[nH]c2ccc(C)cc2c1=O	nt	5.92
N#Cc1cn(CC(=O)N2CCc3ccccc3C2)c2ccccc12	0.25	4.27
O=S1(=O)c2cccc3cccc(c23)N1Cc1cccc(Br)c1	-0.2	1.52
Cc1cc(C)c(-c2ccn(C(=O)c3cc(-c4ccccc4)oc3C)n2)[nH]1	-0.45	1.11
Cc1ccc(S(C)(=O)=O)cc1C(=O)NC1CCC(C)CC1 (stereo not given)	1.1	nt
O=C(c1sc2ccccc2c1Cl)N1CCN(C(=O)C2CCCO2)CC1 (stereo not given)	-0.95	0.24
CCc1ccc(NS(=O)(=O)c2ccc(Oc3cccc(Cl)c3C#N)cc2)cc1	nt	0.215
O=C(NCCCN1CCN(c2ccc(F)cc2)CC1)C1c2ccccc2C(=O)N2CCc3ccccc3C12 (stereo not given)	-0.65	-0.345
Cc1cccc(C)c1NC(=O)CSc1ncccc1C(=O)O	-1.25	nt
COc1cc(C(=O)N(c2ccc3[nH]c(C(C)(C)C)cc3c2)C2CCN(C(C)=O)CC2)cc(OC)c1OC	nt	0.125
CC1CN(C(=O)c2cccc(Cl)c2)CCN1C(=O)c1cccc(Cl)c1 (stereo not given)	0.45	-0.2
CC(Sc1nnc2sc3ccccc3n12)C(=O)O (stereo not given)	-0.3	-0.35
CNC(=O)Cn1cc(S(=O)(=O)Cc2ccccc2)c2ccccc21	2.3	nt
O=C(NCCc1c[nH]c2ccccc12)C1Cc2ccccc2CN1C(=O)c1ccco1 (stereo not given)	-1.35	nt
C=CCn1c(O)c(CN2CCN(Cc3ccccc3)CC2)c(C)c(C#N)c1=O	-0.55	nt
CCCCCCN1C(=O)NC(c2ccccc2)C1=O (stereo not given)	-0.65	0.075
Cn1c(N2CCN(S(=O)(=O)c3ccc(Cl)cc3)CC2)nc2ccccc21	-0.9	nt
CCOC(=O)C1=C(C)N=c2s/c(=C\c3cccc(OCC(=O)O)c3)c(=O)n2C1c1ccc(F)cc1 (stereo not given)	nt	-0.13
O=C(CNC(=O)c1cccc(Br)c1)N/N=C/c1ccc([N+](=O)[O-])s1	nt	-1.53
NC(=O)NC(=O)c1cccnc1	nt	0.415
COc1ccc(-n2nc3c(c2NC(=O)c2ccc(C(=O)c4ccccc4)cc2)CS(=O)(=O)C3)cc1	nt	0.025

The final three entries of the part before lead into the next.
SMILES	AID504770	Ba CapD inh
O=C(CNC(=O)c1cccc(Br)c1)N/N=C/c1ccc([N+](=O)[O-])s1	nt	-1.53
NC(=O)NC(=O)c1cccnc1	nt	0.415
COc1ccc(-n2nc3c(c2NC(=O)c2ccc(C(=O)c4ccccc4)cc2)CS(=O)(=O)C3)cc1	nt	0.025
Cc1onc(-c2c(F)cccc2Cl)c1C(N)=O	nt	0.195
CCn1c(=S)ccc2ccccc21	0.5	-0.23
Cc1nc2nc(N)[nH]c(=O)c2nc1C	-0.75	15.1
Oc1ccccc1C1C=CCC1 (stereo not given)	-1.2	0.265
C=CCNC(=O)COc1ccc2c(C)cc(=O)oc2c1	0.2	nt
O=S(=O)(Cc1ccccc1)N1CCCC(c2nc(-c3cccs3)no2)C1 (stereo not given)	0.05	nt
O=[N+]([O-])c1sccc1CS(=O)(=O)c1ccccc1	nt	-0.77
CCN(CC)S(=O)(=O)c1ccc(N2CCCC2=O)cc1Cl	-0.6	-0.13
O=C(Nc1nc2ccccc2n1CCN1CCCCC1)c1ccc2c(c1)OCO2	nt	0.41
O=C(C1CC1)N1CCc2cc(Br)cc(S(=O)(=O)N3CCN(C4CCCCC4)CC3)c21	-0.45	0.555
CC(C)CNc1ncnc2sc3c(c12)CCCC3	1.15	2.45
CC(NC(=O)C(c1ccccc1)c1ccccc1)C(=O)O (stereo not given)	0.2	0.57
Cc1cc(C(=O)O)c(C#N)c(N)n1	-0.15	42.7
CSC(=NC1CCCCC1)Nc1cc(-c2ccccc2)[nH]n1	-0.05	0.155
N#C/C(=C\c1ccccc1)C(=O)O	-1.75	nt
CC(O)(C(=O)NN=C1CCCC1)c1ccccc1 (stereo not given)	-1.05	-0.64
CCCCOc1ccc(C2=N/C(=C\c3ccc(OC)c(OC(C)=O)c3)C(=O)O2)cc1	nt	-0.115
COc1ccc(C2CC(=O)NC(SCC(=O)Nc3ccc(C)c(C)c3)=C2C#N)cc1OC (stereo not given)	nt	0.035
COc1cc(C(=O)N2CCN(CCN=Cc3c(C)[nH]n(-c4ccc([N+](=O)[O-])cc4)c3=O)CC2)cc(OC)c1OC	nt	-1.31
Cc1ccc(-n2c(=S)[nH]c3c(sc(=S)n3-c3ccccc3C)c2=O)cc1	nt	-1.1
NS(=O)(=O)c1ccc(C(=O)N/N=C/c2c[nH]c3cnc(OCc4ccccc4)cc23)cc1	nt	-0.815
CC(C)(O)C#Cc1ccc(COC(=O)NNC(=O)c2ccc3nonc3c2)cc1	nt	-1.17
CN(Cc1ccccc1)C(=O)COC(=O)c1ccc(S(=O)(=O)N(C)C)cc1	-0.15	nt
CCN(CC)S(=O)(=O)c1ccc2oc(=S)n(CN3CCCCC3)c2c1	1.65	nt
COc1ccc(C(=O)COC(=O)CN2C(=O)C3CC=CCC3C2=O)cc1 (stereo not given)	0.65	-0.185

(list continues)
SMILES	AID504770	Ba CapD inh
COCCN(C1CCN(C(=O)c2ccco2)CC1)S(=O)(=O)c1ccccc1	nt	-0.385
CCC1CC(C)(c2csc(Nc3ccccc3)n2)OC1=O (stereo not given)	-0.35	-0.33
CN=C(NO)C(=O)c1ccc(Cl)cc1	-0.45	-0.055
N#CCSc1nc2cc(Cl)ccc2c(=O)n1Cc1ccccc1	0.15	nt
NC1=NN(c2ccccc2)CC1	-0.15	4.25
Cc1ccc(NC(=S)Nc2cccc(Cl)c2)cc1NS(C)(=O)=O	nt	-0.34
O=C(c1cnoc1)c1ccccc1O	0.25	nt
CC(C)NS(=O)(=O)c1cccc2nsnc12	nt	-1.94
CC1(C)CC(=O)C2=C(C1)OC(N)=C(C#N)C2c1ccc2c(c1Br)OCO2 (stereo not given)	nt	-0.52
O=C(CSc1n[nH]c(=O)n1-c1ccccc1C(F)(F)F)c1ccc(F)cc1	-0.2	0.44
CC1CN(CC(O)COCCC23CC4CC(CC(C4)C2)C3)CC(C)O1 (stereo not given)	-0.2	0.215
N#CCOC(=O)c1cccnc1SCC#N	0.75	nt
O=C(NCCN1CCN(C(=O)c2cccc(F)c2)CC1)C(=O)Nc1ccccc1	nt	-0.175
CCC(C)OC(=O)C1=C(C)NC2(O)c3ccccc3C(=O)C12O (stereo not given)	nt	-0.455
CCC(C)(C)c1cc2cc(NS(=O)(=O)c3ccccc3S(C)(=O)=O)ccc2[nH]1	nt	-0.455
O=C1CN(C(=O)CSc2nnc(Cc3cccs3)n2CCc2ccccc2)c2ccccc2N1	1.4	nt
COc1cc(/C=C2/SC(=S)N(CC(=O)O)C2=O)ccc1OCc1ccc([N+](=O)[O-])cc1	nt	-1.26
O=C(CSc1c2c(nc3ccccc13)CCCC2)NC1CCCCC1	1.55	2.35
CNS(=O)(=O)c1cc(O)c2c(S(=O)(=O)NC)cccc2c1	-0.4	-0.955
O=C1Cc2cc(S(=O)(=O)NC3CCCC3)ccc2N1	0	0.36
Cc1cc(C(=O)COC(=O)c2ccc3c(c2)NC(=O)CS3)c(C)n1Cc1cccs1	-0.05	nt
C=CCN(CC=C)C(=O)c1ccc(NC(=O)CC)cc1	0.1	0.83
O=C(O)CCCn1c(C(F)(F)F)nc2ccccc21	0.7	nt
CN(C)c1ccc(/C=N/NC(=O)C2=CCN(Cc3ccccc3)CC2)cc1	-0.1	2.65
CCN(CC)c1ccc2cc(C(N)=O)c(=Nc3ccc(F)cc3)oc2c1	0.1	4.39
CC1CCCCN1S(=O)(=O)c1ccc(C(=O)Nc2nnc(-c3cccs3)o2)cc1 (stereo not given)	-0.2	nt
COc1ccc(C2CC(=O)C3=C(C2)Nc2ccccc2NC3c2cc(Cl)c(O)c(OC)c2)cc1 (stereo not given)	nt	-0.845

Compounds as they come; 0.37% or so of the library scored in one or more.
